# P. yoelii liver = Plasmodium liver-stage growth inhibition, dose response, imaging, Malaria Box, P. yoelii, HepG2-A16-CD81EGFP (AID 602156); P. yoelii liver stage in HepG2-A16-CD81EGFP, imaging; first-round cut-off not given here; 5,700 tested, 4.8% active; calls after a first round at 10 µM; hits with a dose series show IC50 in µM; in the data active means a potency from the dose series;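 further: infected cells exposed to compound for 48 hours before fixation; stained parasite area by imaging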
# Active calls of the source: *; i = inactive.
SMILES,P. yoelii liver
CN(C)CCNc1cc(-c2ccc3ccccc3c2)nc2ccccc12,i
COc1cc(NC(C)CCCN(Cc2ccc(F)cc2)C(=O)C(c2ccccc2)c2ccccc2)c2ncccc2c1 (stereo not drawn),i
c1ccc(-c2cc(N3CCc4ccccc4C3)nc(-c3ccccn3)n2)nc1,i
COc1ccc(OC)c(-c2ccc(O)c(CN(C)CC(O)c3ccccc3)c2)c1 (stereo not drawn),i
O=[N+]([O-])c1cccc2c1nnn2C12CC3CC(CC(O)(C3)C1)C2,i
O=C(Nc1nc(-c2ccccc2)cs1)c1ccccc1O,i
CCc1cc(C(=O)OC)c(NC(=S)NC(C)c2ccncc2)s1 (stereo not drawn),i
Cc1nonc1C(=O)NN=Cc1ccc([N+](=O)[O-])o1,i
N#Cc1c(N)nc(SCC(=O)c2ccc(Cl)cc2)c(C#N)c1-c1ccco1,i
CCCOc1ccc(C2Sc3ccccc3NC3=C2C(=O)c2ccccc23)cc1OC (stereo not drawn),i
CN(CCCNc1ccnc2cc(Cl)ccc12)C(=O)c1cccc(Br)c1,i
Cc1cc2cc3c(cc2c(C)n1)c1ccccc1n3C,i
Cc1ccc2nc(C)cc(NCCCN(C)C)c2c1,i
COc1ccc(Nc2nc(NN=Cc3cccc([N+](=O)[O-])c3OC)nc(Nc3ccc([N+](=O)[O-])cc3)n2)cc1,i
CCN(CC)CCN1C(=O)c2ccccc2NC1c1ccc(C)cc1 (stereo not drawn),i
O=C(Nc1ccccc1Cl)c1cc2ccccc2cc1O,i
CCN(CC)CCCNC(=S)N(Cc1cc2ccc(OC)cc2[nH]c1=O)C1CCCCC1,i
Cc1oc2c(c1C(=O)N1CCC(C)CC1)C(=O)c1ccccc1C2=O,i
Cc1cc(N)c2ccccc2[n+]1CCCCCCCCCC[n+]1c(C)cc(N)c2ccccc21,0.57µM*
Cc1cc(C(=O)N2CCOc3c(cc(-c4csc5ccccc45)cc3OCCc3ccccn3)C2)n(C)n1,i
O=C(Nc1ccc(O)cc1)c1cccc(S(=O)(=O)N2CCCCC2)c1,i
CCc1[nH]nc2c1C(Cc1ccccc1)C(C#N)=C(N)O2 (stereo not drawn),i
CC[n+]1c(C=C2C=C(C)OC(C)=C2)sc2ccccc21,0.24µM*
Cn1c(SCCCCNC(=O)c2cc([N+](=O)[O-])cc([N+](=O)[O-])c2)nc(-c2ccccc2)c1-c1ccccc1,i
COc1ccc2nc(C)cc(NN=Cc3cccs3)c2c1,i
O=C(COc1ccccc1)NC(c1ccco1)c1cc(Cl)c2cccnc2c1O (stereo not drawn),i
O=C(C1Cc2ccccc2CN1S(=O)(=O)c1ccc(F)cc1)N1CCOCC1 (stereo not drawn),i
CN(Cc1ccccc1)c1cc(-c2ccccn2)nc(-c2ccccn2)n1,i
CCCCCN(CC(=O)Nc1cc(C(C)(C)C)nn1-c1ccc(Cl)c(Cl)c1)C(=O)c1cccc(OC)c1,i
O=C(c1cccs1)N1CCN(c2ccc([N+](=O)[O-])c(NC3CC3)c2)CC1,0.69µM*
CCCCn1c(=N)n(CC(O)c2ccc(Cl)c(Cl)c2)c2ccccc21 (stereo not drawn),i
Cc1cccc(-n2c(-c3ccccc3)nc3ccc(-c4ccc5nc(-c6ccccc6)n(-c6cccc(C)c6)c(=O)c5c4)cc3c2=O)c1,i
O=C(O)CC/C(=C1/C=C(c2ccc(Cl)cc2)NC1=O)c1ccc(Cl)cc1,i
COc1ccc(CNCc2cc(-c3ccnc4cc(Cl)ccc34)ccc2O)c(OC)c1,i
OC1(C(F)(F)F)CC(c2ccccc2)=NN1c1nncc(-c2ccccc2)n1 (stereo not drawn),i
Cc1ccc(C2=NC(C(F)(F)F)(C(F)(F)F)N=C3C=CC(Cl)=CN32)cc1,i
COc1ccc([N+](=O)[O-])cc1N(CC1CO1)S(=O)(=O)c1ccc(C)cc1 (stereo not drawn),i
COc1ccc(C2CC(=O)C3=C(C2)NC(C)=C(C(=O)OC2CCCC2)C3c2ccccc2F)cc1OC (stereo not drawn),i
CCN(CC)C(=O)c1ccc2c(=O)n(Cc3cccc(Br)c3)c(=S)[nH]c2c1,i
CC12CCC(C(=O)N(CC(O)Cn3c4ccc(Cl)cc4c4cc(Cl)ccc43)C1=O)C2(C)C (stereo not drawn),i
COc1cc(NC(C)CCCN(Cc2ccc(F)cc2)C(=O)c2ccccc2F)c2ncccc2c1 (stereo not drawn),i
Cc1cc(C)nc(SCc2cc(=O)c(OC(=O)c3cccc([N+](=O)[O-])c3C)co2)n1,i
Cc1cc(C=C2Sc3ccccc3N2C)[n+](C)c2ccccc12,i
Cc1ccccc1-c1cccc(CN2CCCCC2CCn2cc(C(=O)NC3CC3)nn2)c1 (stereo not drawn),i
CC(Oc1cccc(Cl)c1)C(=O)N1CCc2ccccc21 (stereo not drawn),i
O=C(c1cc2cc(Br)ccc2o1)N1CCc2c([nH]c3ccccc23)C1c1ccc(Cl)cc1 (stereo not drawn),i
CC(C)(C)CC(C)(C)c1ccc(O)c(CN2CCN(CCC#N)CC2)c1,i
O=C(CCl)Nc1ccc(N2CCCCC2)cc1,i
CC(=O)Oc1ccccc1-c1nc2ccccn2c1NC(C)(C)CC(C)(C)C,i
c1ccc(N=c2n(-c3ccccc3)c(=Nc3ccccc3)n(-c3ccccc3)c(=Nc3ccccc3)n2-c2ccccc2)cc1,i
CCNC1=C(C(=O)c2ccccc2)N(CC(=O)c2ccc(Br)cc2)S(=O)(=O)c2ccccc21,i
COCCOC(=O)NCc1ccc(Nc2c(C(C)(C)C)nc3cnccn23)cc1,i
O=C1c2ccc(-c3nc(-c4ccccc4)[nH]c3-c3ccccc3)cc2-c2cc(-c3[nH]c(-c4ccccc4)nc3-c3ccccc3)ccc21,i
Clc1ncnc2ncn(Cc3ccccc3)c12,i
O=C1NCCN1CCNS(=O)(=O)c1cc(C(F)(F)F)cc(C(F)(F)F)c1,i
CN1CCCC1CCNc1ncc(C(=O)NCc2ccccc2)c(NC2CCCC2)n1 (stereo not drawn),i
CC(C)(C)c1ccc(C=CC(=O)NCc2ccco2)cc1,i
COc1ccc(-c2cn(-c3ccccc3)c3[n+]2CCS3)cc1,i
O=C(Nc1ccccc1)C1Cc2ccccc2CN1S(=O)(=O)c1ccc(F)cc1 (stereo not drawn),i
CCN(CC)c1ccc2cc(C(C)=NNC(N)=S)c(=O)oc2c1,i

# Next part:
SMILES,P. yoelii liver
COc1cc(Br)c(C2CC(=O)Nc3ccc4ccccc4c32)cc1OC (stereo not drawn),i
COc1ccc(Cn2c(=S)[nH]c3ccsc3c2=O)cc1,i
c1ccc(C[n+]2ccc(-c3nc4ccccc4s3)cc2)cc1,i
CCc1cc2c(Sc3nnc(N)s3)ncnc2s1,i
COC(=O)[C@@H]1C[C@@H](NC(=O)c2ccc(OC)cc2OC)CN1CC(c1ccccc1)c1ccccc1,i
CCC(C)(C)c1ccc(OCCCC[n+]2ccc(C)cc2)c(C(C)(C)CC)c1,i
C=CCSc1ncc(-c2ccc(Cl)cc2)n1C,i
CCCCCC(=O)Oc1ccccc1-c1nc2cc(C)ccn2c1NC(C)(C)CC(C)(C)C,i
O=C(CCc1ccccc1)NCCCCNc1ccnc2cc(Cl)ccc12,i
COc1cccc(-c2ccc(O)c(CN(C)CCc3ccc(OC)c(OC)c3)c2)n1,i
CCCCN(C(=O)CCC(=O)Nc1cc(C)on1)C(C(=O)NC1CCCC1)c1ccc(C)o1 (stereo not drawn),i
COc1ccc(-c2c[n+](CC(=O)c3ccc(Cl)cc3)c3n2CCC3)cc1,i
CCCCNC(=O)CSCc1cnn(-c2ccccc2)c1-n1cccc1,i
Fc1ccc(CSc2nc3ncccc3[nH]2)cc1,i
C=CCNCc1cc(-c2cc(OC)ccc2OC)ccc1O,i
CN(C)c1cc[n+](CC(=O)Nc2ccc(Cl)cc2)cc1,0.58µM*
COC(=O)c1ccc(C2C3=C(CC(c4ccc(OC)cc4)CC3=O)Nc3ccccc3N2C(=O)c2ccccc2)cc1 (stereo not drawn),i
COC(=O)C1=C(O)/C(=C/c2cc(C)n(-c3ccccc3C(F)(F)F)c2C)N=C1C,i
COc1ccc2nc(Nc3nc(-c4ccccn4)cs3)sc2c1,i
COc1ccc(C2SCCN2S(=O)(=O)c2cccc([N+](=O)[O-])c2)cc1OC (stereo not drawn),i
CSC1=NC2(CC(c3ccc(C)cc3)c3cc(Cl)c(O)cc3O2)CC(C)(C)N1 (stereo not drawn),i
COc1cc(NC(C)CCCN(Cc2ccc(OC)c(OC)c2)C(=O)c2ccc3ccccc3c2)c2ncccc2c1 (stereo not drawn),i
Cc1cc(N2CCN(C)CC2)nc2ccc(NC(=O)/C=C/c3ccc4c(c3)OCO4)cc12,i
Cc1c2c(n3c(nc4ccccc43)c1C#N)N(CCN(C)C)CC2,i
CCc1c(C)nc(SCC(=O)NNC(C)=O)[nH]c1=O,i
COc1ccc(NC(=O)CCCCCn2c(SCC(=O)NCCc3ccc(OC)c(OC)c3)nc3ccsc3c2=O)cc1,i
CCOC(=O)c1c(C)n(-c2ccccc2)c2ccc(OC(=O)c3ccccc3NC(=O)CC)cc12,i
O=C(NNc1ccccc1F)C1CCC1,i
CC(=O)N(C)C1=C(N2CCCC2)C(=O)c2ccccc2C1=O,5µM*
O=C(Nc1cccc(-c2nc3ccccc3[nH]2)c1)c1cc(=O)c2ccccc2o1,i
COc1ccc(/C=C2\SC(=N)N(c3ccc4c(c3)OCO4)C2=O)cc1OC,i
Cc1ccnc(NC(c2ccc(Cl)cc2Cl)c2ccc3cccnc3c2O)c1 (stereo not drawn),i
Cc1ccc(-c2c[n+]3ccccc3n2-c2ccccc2)cc1,i
CCc1ccc(N(C(=O)CCN2CCc3ccccc32)C(C(=O)NCc2ccccc2)c2ccc(OC)c(OC)c2)cc1 (stereo not drawn),i
CCC(C(=O)NCCCCNc1ccnc2cc(Cl)ccc12)c1ccccc1 (stereo not drawn),i
NCCCC[C@H]1C(=O)Nc2ccc(O)cc2C(=O)N1C(C(=O)NCC(=O)O)c1cccnc1 (stereo partly drawn),i
CC1=C(CC(=O)c2ccccc2)C(=O)c2ccccc2C1=O,i
Cc1sc2nc(CN(C(=O)CCc3ccccc3)C3CCCCC3)[nH]c(=O)c2c1C,i
COc1cc(-c2cc(C)c3c(OC)ccc(OC)c3n2)cc2c1OCCN(C(=O)CCn1nc(C)cc1C)C2,i
CN(C)CCn1cnc2sc3c(c2c1=O)CCC(NCc1cccc(Cl)c1)C3 (stereo not drawn),i
CC1=C(CO)C(=O)O[C@@H]([C@@H](C)[C@H]2CC[C@H]3[C@@H]4C[C@H]5O[C@]56[C@@H](O)C=CC(=O)[C@]6(C)C4CC[C@]23C)C1 (stereo partly drawn),i
O=C1CSC(=S)N1c1cccc(Cl)c1,i
CC(C)(C)OC(=O)N1CCC(c2c(C(=O)Nc3cccc(C(F)(F)F)c3)cnn2-c2ccc(F)cc2F)CC1,3.1µM*
CCCCCOC(=O)C1=C(C)Nc2ncnn2C1c1cccc([N+](=O)[O-])c1 (stereo not drawn),i
CCCCCCCCNC(=O)C1CC1c1ccccc1 (stereo not drawn),i

# In the list so far, these contain bromine.
SMILES,P. yoelii liver
CN(CCCNc1ccnc2cc(Cl)ccc12)C(=O)c1cccc(Br)c1,i
CCN(CC)C(=O)c1ccc2c(=O)n(Cc3cccc(Br)c3)c(=S)[nH]c2c1,i
O=C(c1cc2cc(Br)ccc2o1)N1CCc2c([nH]c3ccccc23)C1c1ccc(Cl)cc1 (stereo not drawn),i
CCNC1=C(C(=O)c2ccccc2)N(CC(=O)c2ccc(Br)cc2)S(=O)(=O)c2ccccc21,i
COc1cc(Br)c(C2CC(=O)Nc3ccc4ccccc4c32)cc1OC (stereo not drawn),i

# (more compounds)
SMILES,P. yoelii liver
CC(C)Cc1ccc(-c2csc(NC(=O)C3C4CCC(C4)C3C(=O)O)n2)cc1 (stereo not drawn),i
CCOC(=O)COc1ccc(C2NC(=S)NC(C)=C2C(C)=O)cc1OC (stereo not drawn),i
O=C1/C(=C/c2ccccc2)SC(=Nc2ccccc2)N1C1CCCCC1,i
Cc1ccc(-c2c3c(nc4sc(C(=O)Nc5ccc(Cl)cc5)c(N)c24)CCCC3)o1,i
c1cncc(-c2nc3ccc(-c4ccc5nc(-c6cccnc6)[nH]c5c4)cc3[nH]2)c1,i
Fc1ccc(CCNc2ncnc3c2[nH]c2ccccc23)cc1,i
Cc1ccc(C(C(=O)NCc2ccccc2)N(C(=O)c2snc(C(N)=O)c2N)c2ccccc2)o1 (stereo not drawn),i
CCc1ccc2[nH]c(=O)c(CN(Cc3ccc(OC)cc3)C(=S)NCCCN(CC)CC)cc2c1,i
CCOc1ccc(C(=O)CN2C(=O)c3ccccc3OC(C(C)C)C2=O)cc1[N+](=O)[O-] (stereo not drawn),i
Clc1ccc(Nc2nc(Nc3ccc(Cl)cc3)c3ccccc3n2)cc1,i
CC[n+]1c(C=C2Sc3ccccc3N2CCO)ccc2cc(C)ccc21,i
COc1ccc(Cl)cc1NC(=O)C1c2ccccc2C(=O)N(CC(C)C)C1c1cccs1 (stereo not drawn),i

# In a second layout: entries from further up.
molecule	P. yoelii liver
CCOc1ccc(C(=O)CN2C(=O)c3ccccc3OC(C(C)C)C2=O)cc1[N+](=O)[O-] (stereo not drawn)	i
O=C1/C(=C/c2ccccc2)SC(=Nc2ccccc2)N1C1CCCCC1	i
Cc1ccc(C(C(=O)NCc2ccccc2)N(C(=O)c2snc(C(N)=O)c2N)c2ccccc2)o1 (stereo not drawn)	i
c1cncc(-c2nc3ccc(-c4ccc5nc(-c6cccnc6)[nH]c5c4)cc3[nH]2)c1	i
CC(C)Cc1ccc(-c2csc(NC(=O)C3C4CCC(C4)C3C(=O)O)n2)cc1 (stereo not drawn)	i
CCc1ccc2[nH]c(=O)c(CN(Cc3ccc(OC)cc3)C(=S)NCCCN(CC)CC)cc2c1	i

# This is a subset; count on the stated rates, not on these rows.
